# NS1 function inh: influenza NS1 inhibition. S. cerevisiae slowed by influenza A NS1, growth recovery by OD600. Potency, µM (titrated, usually from 46.1 µM), inactives show at the highest dose activity, positive = more growth. 270,000 tested, 0.4% active; active means well fitted rising curve with a large enough effect; inconclusive means small, poorly fitted or top-dose-only effect; inactive means no such curve, though single readings can be large or run the other way; further: nearly all actives have a fitted effect of over 50% in size
#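 Read-out: OD600 growth recovery of NS1-expressing budding yeast. Cells grown overnight at 30C in -URA glucose medium, washed, resuspended and diluted 1:100 in 2% galactose assay medium, pH 6.0. Same strain lacking NS1 served as positive control.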
# Cruzain inh Det: blocks cruzain activity in presence of Triton detergent; P25779; purified cruzain, Z-FR-AMC fluorescence, 0.01% Triton; 200,000 tested, 0.43% active; Potency, µM, inactives show max response, negative = inhibition, hits mostly inhibitors;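 further: plate controls were neutral wells for no effect and buffer without enzyme for full effect; nearly all actives have a fitted effect of over 40% in size; top concentration of the series not given in the record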
# Target sequence (P25779 123-467 limits assumed): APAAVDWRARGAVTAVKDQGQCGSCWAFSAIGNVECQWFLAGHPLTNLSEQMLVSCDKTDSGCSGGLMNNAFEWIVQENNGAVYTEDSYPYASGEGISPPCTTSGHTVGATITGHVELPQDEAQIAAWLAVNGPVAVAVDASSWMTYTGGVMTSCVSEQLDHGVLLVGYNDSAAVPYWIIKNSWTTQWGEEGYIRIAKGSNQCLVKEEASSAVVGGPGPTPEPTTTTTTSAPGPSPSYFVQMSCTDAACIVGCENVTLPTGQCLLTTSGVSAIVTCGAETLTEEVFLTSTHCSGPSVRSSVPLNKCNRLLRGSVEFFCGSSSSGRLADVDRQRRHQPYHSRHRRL
#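 Sodium acetate buffer (100 mM, pH 5.5) containing 5 mM DTT and 0.01% Triton X-100 hosted 1.5 nM cruzain and test compound for 15 min at room temperature. Cleavage of 2 uM Z-FR-AMC was then tracked by fluorescence.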
# SARS PLpro yeast: blocks SARS-CoV papain-like protease in a yeast assay. S. cerevisiae expressing SARS-CoV PLpro, growth rescue; control for the full effect not named in the record. Potency, µM (titrated, usually from 32.9 µM), without a hit: at the top dose activity, positive = growth rescue. 330,000 tested, 0.19% active; active means well fitted rising curve with a large enough effect; inconclusive means small, poorly fitted or top-dose-only effect; inactive means no such curve, though single readings can be large or run the other way; further: 0% is about no effect; nearly all actives have a fitted effect of over 55% in size; growth read by luminescence after 48 h
# RE007 growth inh: less growth of the S. pombe RE007 Vpr strain | S. pombe RE007 Vpr strain, BacTiter-Glo ATP luminescence, 24 h; control for the full effect not named in the record | AID 651644 | 360,000 tested, 0.21% active | Potency, µM (top dose mostly 92.2 µM), for inactives: top-dose activity change, negative = less growth; active = well fitted falling curve with a large enough effect; inconclusive = small, poorly fitted or top-dose-only effect; inactive = no such curve, though single readings can be large or run the other way;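 further: on the % scale 0 is the no-effect control and ±100 the full control effect; nearly all actives have a fitted effect of over 50% in size; the assay follows cell death caused by Vpr and the record does not say whether a fall means rescue or toxicity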
#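 Fission yeast strain RE007, carrying one chromosomally integrated HIV-1 vpr copy, was seeded at OD 0.01 in PMG+AL medium with 23 nL pinned compound. After 24 h at 30 °C and 99% humidity, viability was read by BacTiter-Glo luminescence.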
# LASV entry inh: blocks Lassa virus binding to or entry into cells; Lassa virus pseudotype entry inhibition, cell reporter; control for the full effect not named in the record; Potency, µM (top dose mostly 37.9 µM), without a hit: top-dose activity change, negative = inhibition, hits mostly inhibitors; 300,000 tested, 1.2% active; active means well fitted inhibition curve with a large enough effect; inconclusive means small, poorly fitted or top-dose-only effect, or effect the other way; inactive means flat fitted curve, though single readings scatter; tested in HEK293 cells; further: on the % scale 0 is the no-effect control and ±100 the full control effect; nearly all actives have a fitted effect of over 50% in size; luciferase read-out
# 2A StopGo: lowers the luciferase signal of an FMDV 2A StopGo reporter; human cells with a luciferase reporter of 2A StopGo recoding; control for the full effect not named in the record; Potency, µM (top dose mostly 57.9 µM), without a hit: at the highest dose signal change, negative = less light; 410,000 tested, 1.2% active; AID 1159524; active = well fitted falling curve with a large enough effect; inconclusive = small, poorly fitted or top-dose-only effect; inactive = no such curve, though single readings can be large or run the other way; tested in HEK293T cells; further: on the % scale 0 is the no-effect control and ±100 the full control effect; nearly all actives have a fitted effect of over 45% in size; luciferase light after 4 h
# MARV entry inh: blocks Marburg virus binding to or entry into cells; Marburg virus pseudotyped entry inhibition, cell reporter; control for the full effect not named in the record; about a third of the inactives were read at about 46 µM; Potency, µM (highest dose often 37.8 µM), for the others: at the highest dose activity change, negative = inhibition, hits mostly inhibitors; AID 540276; 300,000 tested, 1.8% active; active = well fitted inhibition curve with a large enough effect; inconclusive = small, poorly fitted or top-dose-only effect, or effect the other way; inactive = flat fitted curve, though single readings scatter; tested in HEK293 cells; about a fifth of its hits are not listed in these tables; further: on the % scale 0 is the no-effect control and ±100 the full control effect; luciferase read-out
# Cruzain noTriton: blocks cruzain activity in detergent-free assay | Potency, µM, for the others: max response, negative = inhibition, actives largely listed as inhibitors | AID 1476 | purified cruzain, Z-FR-AMC fluorescence, no detergent | 200,000 tested, 2.3% active | P25779;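 further: plate controls were enzyme without inhibitor for no effect and buffer without enzyme for full effect; nearly all actives have a fitted effect of over 40% in size; top concentration of the series not given in the record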
#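 Purified cruzain at 1.5 nM, pre-incubated 15 min with compound at room temperature in 100 mM sodium acetate pH 5.5, 5 mM DTT, 0.00005% Triton X-100. Reaction started with 2 uM Z-FR-AMC; AMC fluorescence increase over 60 s gives rate.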
# The depositor's hits bear a star; ? = inconclusive; nt = not tested or not shown; [ ] = remark or other dose. Unless noted, the call rests on the fitted dose curve; in most records, active means well fitted curve in the direction sought with a large enough effect; inconclusive means small, poorly fitted or top-dose-only effect, or another doubt; inactive means no such curve, though single readings can be large; an effect the other way counts as inactive or inconclusive. Potency means the concentration at half of the fitted maximal effect.
SMILES,NS1 function inh,Cruzain inh Det,SARS PLpro yeast,RE007 growth inh,LASV entry inh,2A StopGo,MARV entry inh,Cruzain noTriton
CCc1nnc(NC(=O)C(C)C)s1,0.2%,2.5%,-0.6%,18.3%,-9.7%,16.0%,-0.6%[46.1 µM],-11.5%
COc1ccc(C(O)(CCc2ccccc2)CCN2CCCCC2)cc1 (configuration not stated),nt,nt,15.3%,-25.1%,?,-5.0%,?,nt
CSCCC(NC(=O)c1ccc(Cl)cc1Cl)C(=O)NNC(=O)c1csc(N2CCOCC2)n1 (configuration not stated),-1.3%,nt,1.4%,-4.3%,-0.6%,4.0%,15.5%,nt
CCOC(=O)c1c(NC(NC(=O)CF)C(Cl)(Cl)Cl)sc2c1CCCC2 (configuration not stated),-20.8%,-11.9%,-111.9%,-10.3%,?,-17.4%,?,-8.7%
COc1ccccc1N1C(=O)c2cccnc2C1=O,26.5%,nt,-5.0%,-11.6%,nt,-1.2%,nt,nt
COC(OC)c1ccnc(SCc2ccccc2Cl)n1,-4.9%,nt,0.0%,0.4%,19.0%,-4.5%,-27.9%,nt
O=C(O)CSc1nnc(NC(=O)c2ccc3c(c2)OCO3)s1,nt,nt,-3.0%,-3.0%,8.91µM*,?,nt,nt
Cc1ccc(C(=O)NNC(=O)c2cc(C)nc3ccccc23)cc1,nt,nt,-4.7%,21.0%,1.0%,-4.0%,17.7%,nt
Cc1ccc(NC(=O)c2ccc(F)cc2F)cc1NS(C)(=O)=O,-4.3%,nt,1.5%,-11.3%,nt,17.2%,nt,nt
Cc1cccc(C(=O)N2CCc3cc(-c4nc(NC(=O)Cn5nnc6ccccc6c5=O)sc4C)ccc32)c1,?,-4.0%,7.2%,nt,-9.4%,nt,6.7%,10µM*
O=c1c2[nH]c3ccccc3c2nc2n1CCCS2,nt,nt,-5.9%,2.4%,?,-16.4%,11.5%[46.1 µM],nt
COc1cc(C(C(=O)NC2CCCCC2)N(Cc2cccs2)C(=O)Cc2c[nH]c3ccccc23)cc(OC)c1OC (configuration not stated),10.6%,-0.8%,-7.4%,-2.3%,-17.2%,?,-32.5%,10.3%
COC(=O)Nc1nc2c(s1)CCCC2,0.7%,2.2%,-3.0%,-28.9%,?,42.5%[activator],4.4%,-4.9%
O=C(/C=C/c1ccc(S(=O)(=O)N2CCOCC2)cc1)N1CCN(c2ccc(F)cc2)CC1,5.8%,nt,0.8%,3.1%,?,?,?,nt
Oc1cncc(Cc2ccccc2)c1,-7.3%,nt,-3.7%,23.1%,?,1.2%,-0.3%,nt
O=C(Nc1cccc(S(=O)(=O)NC2=NCCCCC2)c1)C1COc2ccccc2O1 (configuration not stated),nt,nt,-2.1%,-2.0%,13.2%[46.1 µM],-6.7%,?,nt
COc1ccccc1C(=O)N1c2ccccc2Sc2ccccc21,-15.7%,-7.9%,-20.2%,86.4%,?,-12.1%,?,-1.9%
O=S(=O)(c1ccccc1)N(c1ccccc1)S(=O)(=O)c1ccccc1,nt,nt,nt,2.7%,-6.1%[46.1 µM],-9.7%,-6.7%,nt
CCOC(=O)N1CCC2(CC1)C(C#N)=C(N)OC1=C2C(=O)CCC1,-1.1%,nt,-0.2%,1.4%,-0.3%,-15.2%,13.8%[46.1 µM],nt
COc1ccc2[nH]c(C(=O)N3CCC(CO)(Cc4cccc(C(F)(F)F)c4)CC3)c(C)c2c1,-57.5%,nt,-5.1%,-4.9%,nt,-5.0%,nt,nt
COc1cc(C2Nc3c(C)cc(C)cc3-c3cc(C)nn32)cc(OC)c1O (configuration not stated),nt,-11.1%,nt,nt,?,-26.9%,?,?
CCO[C@H]1OC(C(N)=O)=C[C@@H](C2CCCCC2)[C@@H]1CCCO,2.2%,nt,0.4%,-7.4%,nt,-8.7%,nt,nt
CCOC(=O)c1ccc(Oc2nc(SC)nc(N(C)C)n2)cc1,-10.8%,-2.0%,-3.3%,14.4%,13.5%,-29.9%,0.3%,-3.8%
CCN(CC(=O)Nc1c(F)cccc1F)C(=O)CSCC(=O)Nc1cccc(C)c1,nt,nt,-1.5%,-27.6%,-5.6%,-16.6%,0.9%,nt
CC(=O)Nc1ccc(S(=O)(=O)N2c3ccccc3C(C)=CC2(C)C)cc1,-9.7%,nt,-0.7%,-5.7%,?,0.8%,?,nt

# Other compounds:
SMILES,NS1 function inh,Cruzain inh Det,SARS PLpro yeast,RE007 growth inh,LASV entry inh,2A StopGo,MARV entry inh,Cruzain noTriton
Cc1ccc(C)c(NC(=O)CN(C)C(=O)COc2cccc3c2OC(C)(C)C3)c1,nt,nt,2.8%,43.4%,-5.8%,-26.1%,?,nt
O=C(O)c1cc(S(=O)(=O)N2CCCCCC2)ccc1Cl,9.4%,1.0%,-2.8%,13.2%,11.6%,10.9%,10.3%,-1.2%
CC(=O)N/C(=C/c1ccc2c(c1)OCO2)C(=O)N1CCOCC1,-3.1%,nt,-2.7%,-9.0%,19.6%,-4.5%,7.1%,nt
O=S(=O)(NNC(=S)NCC1CCCO1)c1cc(Cl)ccc1Cl (configuration not stated),10.2%,nt,2.3%,-14.3%,?,-12.6%,-0.7%,nt
C/C(=N\NC(=O)c1csc2ccccc12)c1ccc(O)cc1,9.0%,-3.1%,-2.7%,2.3%,-1.4%,-9.2%,?,5.4%
CCCCn1c(SCC(=O)NCc2cccs2)nc2c1c(=O)n(C)c(=O)n2C,-7.2%,7.0%,-3.7%,-7.6%,-3.0%,-5.9%,6.2%,3.5%
COc1ccc2oc(=O)c(/C(N)=N/NC(=O)c3ccncc3)cc2c1,10.2%,nt,7.1%,-4.8%,-0.3%,3.2%,4.2%[46.1 µM],nt
CCOC(=O)C1=C(N)N(c2ccc(C)cc2)C2=C(C(=O)CCC2)C1c1cccs1 (configuration not stated),4.4%,-11.6%,-7.0%,nt,-17.4%,?,?,-18.6%
Cc1ccc(C2=CC(c3cccs3)n3nnnc3N2)cc1 (configuration not stated),3.16µM*,4.9%,-1.8%,2.2%,-24.3%,13.6%,6.7%,15.8µM*
Cc1cc(C(=O)OCC(=O)Nc2ccc(F)c(F)c2)c(C)o1,-50.9%,-3.0%,-15.2%,-7.2%,0.8%,-16.8%,?,-2.7%
COc1cccc2cc(NC(=O)C3CCCCC3)c(=O)oc12,-1.4%,3.5%,-1.5%,10.3%,-4.0%,84.5%[activator],?,-2.0%
CN(Cc1ccc(F)cc1)C(=O)COc1ccc2ccccc2c1,-8.8%,nt,6.6%,9.8%,2.2%,6.8%,3.2%[46.1 µM],nt
Cn1c(SCc2cccc([N+](=O)[O-])c2)nc2c(c1=O)SCC2,nt,nt,0.8%,11.0%,?,28.2µM*,?,nt
O=C(Nc1ccccc1)c1cccc(S(=O)(=O)NC2CCCC2)c1,2.2%,nt,-1.0%,-6.5%,nt,-25.1%,nt,nt
O=C(Oc1ccccc1N1C(=O)C2CCCCC2C1=O)c1ccccc1F (configuration not stated),-7.6%,-3.3%,8.0%,-8.9%,0.0%,-17.0%,-14.6%,-1.4%
O=C(CSCc1nc2scc(-c3cccs3)c2c(=O)[nH]1)Nc1ccccn1,6.4%,nt,-1.7%,-7.8%,7.9%,-27.7%,1.9%,nt
Fc1ccc(Nc2nc(-c3cccc(Cl)c3)c3c(n2)-c2ccccc2OC3)c(F)c1,nt,-0.9%,nt,nt,?,-12.8%,?,-2.0%
C=CCN1C(=O)C(C)(C)Nc2ccccc21,-2.6%,3.4%,9.9%,-18.2%,-2.1%,0.7%,-1.0%,-5.9%
COc1ccc2c(CNCCc3ccccc3C)c(C(=O)O)n(Cc3ccccc3C)c2c1,nt,-1.5%,nt,nt,-8.3%[46.1 µM],4.9%,nt,-6.6%
Cc1cc(F)ccc1NC(=O)c1ccc(NS(=O)(=O)c2cc(C(C)(C)C)ccc2C)cc1,-12.4%,-5.5%,-6.9%,-3.9%,?,70.0%[activator],-8.6%,-0.4%
COC(=O)c1ccc(Oc2c(C)oc3c(CN4CCN(C)CC4)c(O)ccc3c2=O)cc1,-3.8%,-4.0%,0.9%,-2.6%,18.9%,11.5%,-12.9%,14.0%
COc1ccc(S(=O)(=O)NCC2CCCN(C(=O)CCSC)C2)cc1 (configuration not stated),-4.1%,nt,1.3%,-8.7%,nt,45.3%[activator],nt,nt
Cc1ccc(OCCCC(=O)Nc2cc(Cl)ccc2-n2cncn2)cc1,nt,nt,-2.2%,-9.8%,-9.3%,-27.0%,?,nt
COc1ccc(NC(=O)c2cc(-c3ccccc3)nc3c2c(C)nn3-c2ccccc2)c(OC)c1,8.6%,-4.3%,5.8%,1.3%,-2.9%,?,16.6%,?
COc1ccc(-c2c(-c3ccc(OC)cc3O)nc(C)nc2C(F)(F)F)cc1,1.9%,nt,-0.8%,-7.3%,nt,-20.8%,nt,nt

# Next section:
SMILES,NS1 function inh,Cruzain inh Det,SARS PLpro yeast,RE007 growth inh,LASV entry inh,2A StopGo,MARV entry inh,Cruzain noTriton
O=C(CSc1nnc2[nH]c(=O)cc(-c3ccccc3)n12)Nc1ccccc1C(F)(F)F,nt,-0.7%,nt,nt,17.5%[46.1 µM],40.1%[activator],nt,3.0%
COc1cc(C(=S)N2CCCCC2)ccc1OCC(=O)N1CCCC1,10.2%,1.8%,1.4%,-6.7%,9.3%,-11.6%,0.4%,0.1%
O=C1CC2(CON=C2c2ccc(F)cc2)C(=O)N1c1ccc(F)cc1 (configuration not stated),-4.4%,0.4%,-1.5%,-12.2%,2.2%,-22.9%,23.7%,-11.0%
COc1ccc(-c2noc(CSc3nc4ccccc4c(=O)n3-c3ccccc3)n2)cc1,?,2.2%,-0.4%,-16.1%,-51.1%[14.3 µM],-15.2%,-20.5%,?
O=C(Nc1ccc(Cl)cc1)OCCN1CCOCC1,nt,nt,nt,12.1%,1.0%[46.1 µM],8.7%,25.0%[46.1 µM],nt
COc1ccc(-n2nc3cc(C)c(N)c(Br)c3n2)cc1,-35.5%,-9.4%,-3.0%,-0.1%,-22.4%,18.7%,?,-13.3%
COc1ccc(CCNC(=O)CC2SC(=Nc3cc(C)cc(C)c3)NC2=O)cc1OC (configuration not stated),nt,nt,-5.6%,-8.5%,-8.0%[46.1 µM],-15.8%,-27.4%[46.1 µM],nt

# Assay outcomes as filed in PubChem BioAssay.

# Outcome played no part in choosing rows. Share with any hit: about 4.5%.
